# Screens deposited in PubChem BioAssay by National Center for Advancing Translational Sciences (NCATS).
# nsP2pro primary – inhibitors of chikungunya virus nsP2 protease | Q8JUX6 | FRET peptide cleavage, nsP2pro, fluorescence 1 h | Potency, µM (titrated, usually from 24.9 µM), without a hit: at the highest dose activity change, negative = inhibition, most hits filed as inhibitors | 31,000 compounds, 1.1% hits; active means well fitted inhibition curve with a large enough effect; inconclusive means small, poorly fitted or top-dose-only effect; inactive means no such curve, though single readings can be large or run the other way; further: nearly all actives have a fitted effect of over 60% in size; a reference inhibitor and vehicle were the controls
# Numbers without * were called inactive; ? = inconclusive; & = joins results of further samples; [ ] = remark or other dose. On the % scale 0 is the no-effect control and ±100 the full control effect; potency means the concentration at half of the fitted maximal effect.
No. | Compound | nsP2pro primary
1 | Cc1cccc(Nc2cc(Cl)nc(SCC(=O)O)n2)c1C | 7%
2 | CC(C)(C)c1nnc(NS(=O)(=O)c2ccccc2)s1 | 7%
3 | COc1ccc(C(=O)Nc2ncc(-c3ccc(C(=O)O)cc3)s2)cc1 | 2%
4 | COc1ccc(CNc2nc(N(CCO)CCO)nc3c2ncn3C(C)C)cc1 | ?
5 | c1ccc(Cn2c(-c3ccc(OCC(C4CCNCC4)n4c(-c5ccccc5)nc5ccccc54)cc3)nc3ccccc32)cc1 (stereo unspecified) | 3%
6 | CCC(=O)O[C@]1(C(=O)SCF)[C@H](C)C[C@H]2[C@@H]3C[C@H](F)C4=CC(=O)C=C[C@]4(C)[C@@]3(F)[C@@H](O)C[C@@]21C | 0%
7 | CCn1cc(S(=O)(=O)N2CCC[C@H]2c2nc(-c3ccc(F)cc3)n[nH]2)cn1 | -7%
8 | COc1ccc(S(=O)(=O)Nc2c(C)cc(C)cc2C)cc1 | -10%
9 | C[C@@H](Nc1ncnc2[nH]c(-c3ccc(O)cc3)cc12)c1ccccc1 | 44%[activator]
10 | O=C(OC1C[C@@H]2CC3C[C@@H](C1)N2CC3=O)c1c[nH]c2ccccc12 (stereo partly specified) | -10%
11 | COc1ccc(-n2[nH]c3c(cnc4ccccc43)c2=O)cc1 | ?
12 | CCC(Sc1nc2ccccc2c2nc(CCn3cncc3C)nn12)C(=O)Nc1cccc(OC)c1 (stereo unspecified) | 99%[activator]
13 | CCOC(=O)NNc1nncc2ccccc12 | 7%
14 | CC(=O)Oc1ccc2c(c1)CC[C@@H]1[C@@H]2CC[C@]2(C)[C@@H](O)CC[C@@H]12 | 0%
15 | NCCNC(=O)c1ccc(Cl)cn1 | 22%
16 | CCCCOc1ccc(CC(=O)NO)cc1 | -8%
17 | Cc1cc(C(C)Nc2ccccc2C(=O)O)c2nc(N3CCOCC3)cc(=O)n2c1 (stereo unspecified) | -17%
18 | CC(C)(C)OC(=O)c1ncn2c1C(C)(C)Nc1ccccc1-2 | ?
19 | CN(C)C/C=C/C(=O)Nc1cc2c(Nc3ccc(F)c(Cl)c3)ncnc2cc1OC1CCOC1 (stereo unspecified) | 107%[activator]
20 | Cc1ccnc(NC(c2cccc(O)c2)c2ccc3ccc(C)nc3c2O)c1 (stereo unspecified) | -40%
21 | O=C(CS(=O)Cc1ccco1)NC/C=C\COc1cc(CN2CCCCC2)ccn1 (stereo unspecified) | 1%
22 | C=CCOc1cc(Cl)ccc1C(=O)NCCN(CC)CC | 19%
23 | CCCOC(C(=O)OC1CCN(C)CC1)(c1ccccc1)c1ccccc1 | -15%
24 | COc1cc(N2CCOCC2)ccc1Nc1ncc(F)c(Nc2ccccc2NS(C)(=O)=O)n1 | 7%
25 | CN(C)CC(=O)Nc1ccc2[nH]c(=O)c3ccccc3c2c1 | 1%&-6%
26 | COc1cc(Nc2nc3ccccc3nc2NS(=O)(=O)c2ccc(NC(=O)c3ccc(OC)c(C)c3)cc2)cc(OC)c1 | 8%
27 | CC[C@@H]1C(=O)N(C)c2cnc(Nc3ccc(C(=O)NC4CCC(N5CCN(CC6CC6)CC5)CC4)cc3OC)nc2N1C(C)C (stereo partly specified) | 86%&73%&22%[activator]
28 | CCOc1ccc(-n2c(C(C)N(Cc3cccnc3)C(=O)Cc3ccc(F)c(C(F)(F)F)c3)nc3ncccc3c2=O)cc1 (stereo unspecified) | 31%
29 | c1ccc(C(OC2CCN(CCCc3nn[nH]n3)CC2)c2ccccc2)cc1 | -3%
30 | COC(=O)c1ccc2c(C(=Nc3ccc(N(C)C(=O)CN4CCN(C)CC4)cc3)c3ccccc3)c(O)[nH]c2c1 | 53%&13%[activator]
31 | CC(C)c1c2cc(-c3ccnc(NC4CCC(NC5CCOCC5)CC4)n3)ccc2nn1C (stereo unspecified) | 28%
32 | CN(C)C/C=C/C(=O)Nc1cccc(C(=O)Nc2ccc(Nc3nccc(-c4cccnc4)n3)cc2)c1 | 201%[activator]
33 | NCCCC[C@H](N)C(=O)O | 9%[0.199 µM]
34 | Cc1ccc(Nc2cc(-c3cccc(N4C(=O)c5ccccc5C4=O)c3)ncn2)cc1NS(C)(=O)=O | -3%
35 | COc1cc2c(cc1OC)CN(C(=O)[C@@H](NCc1ccncc1)C(C)(C)C)CC2 | ?
36 | O=C(N[C@@H]1CC[C@@H](c2cccc(F)c2F)CN(CC(F)(F)F)C1=O)N1CCC(n2c(=O)[nH]c3ncccc32)CC1 | -1%
37 | CC(=O)Nc1ccc(S(=O)(=O)Nc2cc(C)on2)cc1 | 4%&-4%&-2%
38 | C/C(=C(\CCO)SS/C(CCO)=C(\C)N(C=O)Cc1cnc(C)nc1N)N(C=O)Cc1cnc(C)nc1N | 11µM*
39 | Nc1ncnc2nc[nH]c12 | -16%&11%
40 | CCn1cc(C(=O)O)c(=O)c2cc(F)c(N3CCNCC3)nc21 | 1%

# Molecules shown so far containing sulfur, in the order listed:
No. | Compound | nsP2pro primary
1 | Cc1cccc(Nc2cc(Cl)nc(SCC(=O)O)n2)c1C | 7%
2 | CC(C)(C)c1nnc(NS(=O)(=O)c2ccccc2)s1 | 7%
3 | COc1ccc(C(=O)Nc2ncc(-c3ccc(C(=O)O)cc3)s2)cc1 | 2%
6 | CCC(=O)O[C@]1(C(=O)SCF)[C@H](C)C[C@H]2[C@@H]3C[C@H](F)C4=CC(=O)C=C[C@]4(C)[C@@]3(F)[C@@H](O)C[C@@]21C | 0%
7 | CCn1cc(S(=O)(=O)N2CCC[C@H]2c2nc(-c3ccc(F)cc3)n[nH]2)cn1 | -7%
8 | COc1ccc(S(=O)(=O)Nc2c(C)cc(C)cc2C)cc1 | -10%
12 | CCC(Sc1nc2ccccc2c2nc(CCn3cncc3C)nn12)C(=O)Nc1cccc(OC)c1 (stereo unspecified) | 99%[activator]
21 | O=C(CS(=O)Cc1ccco1)NC/C=C\COc1cc(CN2CCCCC2)ccn1 (stereo unspecified) | 1%
24 | COc1cc(N2CCOCC2)ccc1Nc1ncc(F)c(Nc2ccccc2NS(C)(=O)=O)n1 | 7%
26 | COc1cc(Nc2nc3ccccc3nc2NS(=O)(=O)c2ccc(NC(=O)c3ccc(OC)c(C)c3)cc2)cc(OC)c1 | 8%
34 | Cc1ccc(Nc2cc(-c3cccc(N4C(=O)c5ccccc5C4=O)c3)ncn2)cc1NS(C)(=O)=O | -3%
37 | CC(=O)Nc1ccc(S(=O)(=O)Nc2cc(C)on2)cc1 | 4%&-4%&-2%
38 | C/C(=C(\CCO)SS/C(CCO)=C(\C)N(C=O)Cc1cnc(C)nc1N)N(C=O)Cc1cnc(C)nc1N | 11µM*

# Later entries.
No. | Compound | nsP2pro primary
41 | C#CCC(Cc1cnc2nc(N)nc(N)c2n1)c1ccc(C(=O)N[C@@H](CCC(=O)O)C(=O)O)cc1 (stereo partly specified) | -1%
42 | CC(C)c1cnn2c(NCc3ccccc3)cc(N[C@@H](CO)[C@H](O)CO)nc12 | ?
43 | Fc1ccc(N2CCCCC2)c(NC(=S)c2ccncc2)c1 | ?
44 | CN(C)CCOc1ccccc1Cc1ccccc1 | -27%
45 | CC(=O)O[C@@]12CO[C@@H]1C[C@H](O)[C@@]1(C)C(=O)[C@H](O)C3=C(C)[C@@H](OC(=O)C(O)[C@@H](NC(=O)OC(C)(C)C)c4ccccc4)C[C@@](O)([C@@H](OC(=O)c4ccccc4)[C@H]21)C3(C)C (stereo partly specified) | -2%
46 | CC(=O)Nc1nc(C)c(-c2nc(N3CCCC(O)C3)no2)s1 (stereo unspecified) | -2%
47 | Cc1c(F)cc2c(=O)c(C(=O)O)cn3c2c1CCC3C (stereo unspecified) | -4%
48 | CC[C@@]1(O)C(=O)OCc2c1cc1n(c2=O)Cc2c-1nc1cc(F)c(C)c3c1c2[C@@H](N)CC3 | 5%
49 | CCN1CCN(Cc2ccc(-c3cc4c(N[C@H](C)c5ccccc5)ncnc4[nH]3)cc2)CC1 | 185%[activator]
50 | Cc1cc(C(=O)Nc2cc(Nc3ccc4c(/C=C/c5ccccn5)n[nH]c4c3)ccc2F)n(C)n1 | 71%[activator]
51 | C[C@@H]1C[C@H]2[C@@H]3C[C@H](F)C4=CC(=O)C=C[C@]4(C)[C@@]3(F)[C@@H](O)C[C@]2(C)[C@@]1(O)C(=O)COC(=O)C(C)(C)C | -1%
52 | Cc1cc(C)cc(OCC2CNC(=O)O2)c1 (stereo unspecified) | 0%
53 | CCOc1ccc(Cc2cc([C@@]34OC[C@@](CO)(O3)[C@@H](O)[C@H](O)[C@H]4O)ccc2Cl)cc1 | -3%
54 | COc1cc2ncnc(Oc3cccc(NC(=O)Nc4cc(C(C)(C)C(F)(F)F)on4)c3)c2cc1OC | -3%

# A portion of the library; rates above refer to the full screens.
